Source: PubChem
YopH inh – YopH (Yersinia) phosphatase inhibition. fluorescence Ex485/Em525. inhibition, %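 (about 10 µM by stock and volumes)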. actives 0.16% (n = 140,000). AID 898;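 active = inhibition of 50% or more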;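 note: controls were vehicle for no effect and minimum signal wells for full effect; inactives centre near -20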
Mtb growth – M. tuberculosis H37Rv growth inhibitors, H37Rv strain (AID 1626) | M. tuberculosis H37Rv growth inhibition; higher % means a stronger effect | inhibition, % at 10 µM, or IC50 in µM where a hit was titrated | actives 0.95% (n = 220,000);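 active = confirmed in a dose series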;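 note: bacteria incubated seven days before Alamar blue readout; 0% = bacteria only wells and 100% = bacteria with antibiotic wells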
Mtb betalactam – beta-lactam sensitization of Mtb H37Rv; actives 0.27% (n = 330,000); inhibition, % at 25 µM; M. tuberculosis H37Rv growth with meropenem, percent inhibition; hits of this screen are not shown here;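 active = about 74% or more and at least 40 points above the plate without the antibiotic, then above 30% in a dose series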;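 note: growth measured after seven days incubation then overnight dye step; 0% = bacteria only wells and 100% = bacteria with antibiotic; twin plates without the antibiotic show which effects depend on it; some results filed as inactive read as strong as hits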
RecA splice inh – blocks M. tuberculosis RecA intein splicing; cell-free RecA intein splicing, fluorescence; P9WHJ3; AID 2221; actives 0.75% (n = 290,000); inhibition, %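 (about 9 µM by stock and volumes)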; in the data active = inhibition above about 30%;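 note: 0% = vehicle wells and 100% = reference inhibitor control wells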
Target sequence (P9WHJ3 whole entry, looked up, canonical isoform): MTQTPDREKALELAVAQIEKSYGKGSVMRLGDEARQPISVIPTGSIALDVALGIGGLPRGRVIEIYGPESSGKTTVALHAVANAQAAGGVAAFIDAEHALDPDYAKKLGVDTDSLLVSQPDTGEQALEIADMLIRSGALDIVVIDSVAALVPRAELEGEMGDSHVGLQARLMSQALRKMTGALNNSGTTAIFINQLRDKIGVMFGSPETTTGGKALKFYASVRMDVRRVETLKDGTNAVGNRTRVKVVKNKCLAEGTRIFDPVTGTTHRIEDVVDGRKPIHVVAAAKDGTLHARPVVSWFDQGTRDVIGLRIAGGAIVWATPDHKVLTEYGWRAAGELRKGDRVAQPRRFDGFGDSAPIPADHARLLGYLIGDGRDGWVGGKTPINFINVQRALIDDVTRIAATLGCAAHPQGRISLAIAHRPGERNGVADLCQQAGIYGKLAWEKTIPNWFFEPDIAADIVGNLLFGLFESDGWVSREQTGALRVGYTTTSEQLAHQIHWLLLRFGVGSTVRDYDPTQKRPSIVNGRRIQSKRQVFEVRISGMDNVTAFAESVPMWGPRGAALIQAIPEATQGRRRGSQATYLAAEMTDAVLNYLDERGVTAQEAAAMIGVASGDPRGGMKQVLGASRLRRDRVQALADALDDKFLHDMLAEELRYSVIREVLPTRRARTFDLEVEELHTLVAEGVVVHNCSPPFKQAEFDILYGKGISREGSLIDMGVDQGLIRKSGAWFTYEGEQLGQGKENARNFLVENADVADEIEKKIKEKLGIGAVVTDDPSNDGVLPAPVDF
Arbovirus anti – antivirals against arbovirus infection; arbovirus infection cell-based antiviral screen; AID 1251; inhibition, % at 10 µM; actives 0.37% (n = 200,000);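 active = inhibition from about 30%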;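 note: bluetongue infection of BSR cells; cell survival read as ATP light after 72 h; 0% = infected wells without compound and 100% = uninfected wells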
Arbovirus anti repeat – recorded beside Arbovirus anti, whose call it bears; inhibition, %; measured here: 10K subset replicate screen; many hits read low in the repeat;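 first of two repeat runs on a subset; 0% = infected and 100% = uninfected wells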
* = called active by the depositor; · = not tested or not shown. Some of the compounds tested; count on the stated rates, not on these rows.

SMILES	YopH inh	Mtb growth	Mtb betalactam	RecA splice inh	Arbovirus anti	others
CC(=O)c1c(OC(=O)c2cccc(Cl)c2)c2ccccc2n1C	·	0.3%	·	7.5	·
Cc1csc(Sc2ccc(S(=O)(=O)N3CCCC3)cn2)n1	·	6.6%	-10.5	0.0	0.4
O=C(C1CCCN1S(=O)(=O)c1cccc2cccnc12)N1CCc2ccccc2C1 (centres undefined)	-41.2	-1.4%	-1.3	6.0	0.2	Arbovirus anti repeat=-0.3
COc1cc2c(cc1OC)-c1c(OC)c(OC)cc3c1C(C2)N(C)CC3 (centres undefined)	-4.9	-0.3%	-4.6	71.0*	-22.0	Arbovirus anti repeat=-19.4
O=C(c1ccc(S(=O)(=O)N2CCOCC2)cc1)N1CCOCC1	·	1.8%	1.2	-1.1	4.3
OC(CCCCN1CCCCC1)c1ccccc1 (centres undefined)	-34.5	-12.9%	0.1	0.5	18.2
Cc1cc(C)nc(-n2nc(C)cc2NC(=O)c2ccc(F)cc2F)n1	·	6.0%	21.4	0.9	-12.4
COc1cc(OC)c(N(C)S(=O)(=O)c2cccc(C(=O)OCc3c(C)noc3C)c2)cc1Cl	·	-3.7%	-6.2	-0.6	-6.3
COc1cc(CNCCc2ccccc2)ccc1OCC(N)=O	-11.8	1.4%	-1.7	1.2	2.7
O=C(CN1C2CCCC1CC(NC(=O)c1ccccc1)C2)Nc1ccccc1 (centres undefined)	·	·	-3.7	-0.7	·
COc1cc(OC)cc(C(=O)N2CCC(N3CCN(c4ccccc4)CC3)CC2)c1	-5.1	-3.2%	-7.8	3.5	-1.2
CN1CCCC(OC(=O)CCCCC(=O)OC2CCCN(C)C2)C1 (centres undefined)	-45.7	-7.2%	-9.7	-1.6	8.6
Cc1ccc(S(=O)(=O)NC(=O)NC(C)c2ccc(F)cc2)cc1 (centres undefined)	·	·	-4.8	0.3	·
CC(=O)Nc1ccc(NC(=O)CC(c2ccccc2)c2ccccc2)cc1	·	·	-7.0	-0.8	·
CCOc1cc([N+](=O)[O-])c2nc(N)sc2c1	·	0.3%	-6.6	-1.0	·
CN(C)C(CN1C(=O)C2CC=CCC2C1=O)c1cn(C)c2ccccc12 (centres undefined)	-10.9	2.6%	-10.3	0.3	1.6
CCc1nc2ccccc2c(=O)n1/N=C/c1ccc(Cl)cc1	·	·	-0.9	4.1	·
O=C(C1CCN(S(=O)(=O)N2CCOCC2)CC1)N1CCOCC1	-45.0	-6.5%	-9.2	-2.1	13.6
COc1cccc2cc(C(=O)N3CCCc4ccccc43)oc12	·	·	2.8	6.7	·
CC(C)(C)c1ccc(C(=O)n2cnc3ccccc32)cc1	·	·	1.4	1.8	·
CNC(=O)Nc1ccc(C(O)(C(=O)OC)C(F)(F)F)cc1 (centres undefined)	·	-5.7%	-7.0	-2.3	·
C=C1C(C(=O)Nc2ccccc2)C1C(=O)Nc1ccccc1 (centres undefined)	·	-3.6%	-0.7	-2.9	·
CC1(c2ccccc2)NCCN2C(=O)CSC21 (centres undefined)	-26.3	4.9%	0.6	-0.8	4.6
O=C(CN1C(=O)COc2ccccc21)c1ccc(Cl)cc1	-36.3	-6.8%	52.8	·	-0.1
CCOc1cc(/C=C2\SC(=NC)N(C)C2=O)c(Br)cc1OC(C)=O	·	·	2.5	7.5	·

(cont.)
SMILES	YopH inh	Mtb growth	Mtb betalactam	RecA splice inh	Arbovirus anti	others
COc1cccc(CNC(=O)CCN2C(=S)NC(C)(C)CC2C)c1 (centres undefined)	·	5.5%	-9.1	-1.1	4.6
Cc1noc(C)c1C(=O)OCC(=O)c1c[nH]c2ccccc12	-50.8	-2.6%	2.7	-0.7	3.0
O=C(NCc1ccc(Cl)cc1)C(=O)NCC1OCCN1S(=O)(=O)c1cccs1 (centres undefined)	-26.0	3.2%	3.3	1.0	-8.9
CNC(=O)CSc1nnnn1-c1ccc2c(c1)OCCO2	-16.5	5.5%	-3.2	·	-0.7
O=C(CS(=O)(=O)c1c[nH]c2ccccc12)N1CCc2ccccc21	·	·	1.9	2.4	3.3
COc1ccc2c(c1)sc(=NC(=O)CS(=O)(=O)c1ccc(F)cc1)n2C	·	·	28.7	-3.4	·
CCCCC(=O)N1CC(=O)Nc2ccc(F)cc2C1c1ccc(F)cc1 (centres undefined)	·	·	4.7	0.2	·
Cc1cccc(C(=O)c2c[nH]cc2-c2ccccc2)c1	-30.5	5.9%	0.3	5.1	-3.1
COc1ccc(CCN2CC(C(=O)NCc3ccc(F)cc3)CC2=O)cc1OC (centres undefined)	·	1.6%	-6.4	-0.4	·
C/C(=N\NC(=O)Cn1cnc2ccccc21)c1cccs1	·	-9.1%	-6.5	0.7	-2.2
COc1ccc(C)cc1NC(=O)C(=O)N1CCCC1	·	-3.0%	-9.1	1.5	·
Cc1ccc(SCCC(=O)OC(C(=O)NC(N)=O)C(C)C)cc1 (centres undefined)	·	2.2%	-14.8	-0.5	-0.5
COc1cc(N2CCOCC2)ccc1C=C(C#N)C#N	·	-2.1%	-4.3	0.6	0.5
Cc1nc(CNS(=O)(=O)c2ccc3ccccc3c2)cs1	-23.1	0.8%	-4.2	0.9	1.0	Arbovirus anti repeat=3.6
CCC(CC)c1nnc(NC(=O)CN2C(=O)NC3(CCCC3)C2=O)s1	·	·	-4.8	-3.7	·
O=C(CNS(=O)(=O)c1ccc(Cl)cc1)OCC(=O)N1CCCc2ccccc21	-19.7	2.8%	-4.7	-0.2	0.3
CCN(CC)C(=O)CSc1nc2c(sc(=S)n2CC)c(=O)n1-c1ccccc1	8.9	1.6%	-5.2	-10.4	4.6
CCOc1ccc(CCNC(=O)CS(=O)(=O)Cc2nc(-c3ccccc3F)oc2C)cc1	·	·	-0.4	0.3	·
CCC(=O)c1c(CC)c2n3c1CC[C@H]3CCC2	·	·	2.7	0.7	·
Cc1cc(C)cc(N(C(=O)c2csnn2)C(C(=O)NC2CCCCC2)c2ccccn2)c1 (centres undefined)	·	·	2.0	2.2	·
Cc1ccc(C(C(=O)NC2CCCC2)N(C(=O)Cc2cccs2)c2cccc(C)c2C)o1 (centres undefined)	-40.2	5.9%	-4.0	-1.8	-7.4
O=C(O)CCCC(=O)Nc1nc2n(n1)C(c1ccc(F)cc1)CC(c1ccc(Cl)cc1)N2 (centres undefined)	-33.5	-0.5%	-8.5	-1.5	39.0*
Fc1cccc(CN2CCN(c3ccc(Cl)cc3)CC2)c1	·	·	-0.8	3.8	·
C=CCOc1ccc(CNn2cn[nH]c2=S)cc1OCC	-19.1	-6.2%	-8.9	-1.6	-0.6
CS(=O)(=O)Nc1cccc(C2=NN(C(=O)CCCC(=O)O)C(c3cccs3)C2)c1 (centres undefined)	·	·	3.8	-0.5	·

Five consecutive entries already listed, for reference:
SMILES	YopH inh	Mtb growth	Mtb betalactam	RecA splice inh	Arbovirus anti	others
Cc1ccc(C(C(=O)NC2CCCC2)N(C(=O)Cc2cccs2)c2cccc(C)c2C)o1 (centres undefined)	-40.2	5.9%	-4.0	-1.8	-7.4
O=C(O)CCCC(=O)Nc1nc2n(n1)C(c1ccc(F)cc1)CC(c1ccc(Cl)cc1)N2 (centres undefined)	-33.5	-0.5%	-8.5	-1.5	39.0*
Fc1cccc(CN2CCN(c3ccc(Cl)cc3)CC2)c1	·	·	-0.8	3.8	·
C=CCOc1ccc(CNn2cn[nH]c2=S)cc1OCC	-19.1	-6.2%	-8.9	-1.6	-0.6
CS(=O)(=O)Nc1cccc(C2=NN(C(=O)CCCC(=O)O)C(c3cccs3)C2)c1 (centres undefined)	·	·	3.8	-0.5	·

Structural class, those above containing an NH in an aromatic ring.
SMILES	YopH inh	Mtb growth	Mtb betalactam	RecA splice inh	Arbovirus anti	others
Cc1noc(C)c1C(=O)OCC(=O)c1c[nH]c2ccccc12	-50.8	-2.6%	2.7	-0.7	3.0
O=C(CS(=O)(=O)c1c[nH]c2ccccc12)N1CCc2ccccc21	·	·	1.9	2.4	3.3
Cc1cccc(C(=O)c2c[nH]cc2-c2ccccc2)c1	-30.5	5.9%	0.3	5.1	-3.1
C=CCOc1ccc(CNn2cn[nH]c2=S)cc1OCC	-19.1	-6.2%	-8.9	-1.6	-0.6

(further entries)
SMILES	YopH inh	Mtb growth	Mtb betalactam	RecA splice inh	Arbovirus anti	others
Cc1ccc(Cl)cc1N1CCN(C(=O)C(C)n2ncn3cccc3c2=O)CC1 (centres undefined)	·	·	25.0	4.1	·
CSc1nnc(SCc2nc3sc(C(=O)O)c(C)c3c(=O)[nH]2)s1	·	-8.8%	-8.8	-4.3	·
c1ccc2c(c1)OCC(c1csc3ncnc(N4CCCCC4)c13)O2 (centres undefined)	-34.6	16.6%	-4.7	1.1	12.5
CN(C)c1cccc(C(=O)OCC(=O)Nc2nccs2)c1	-28.8	3.7%	-1.3	-2.6	-1.1
O=C(Cn1cc(C(=O)C(F)(F)F)c2ccccc21)N1CCOCC1	·	-3.9%	5.2	4.5	0.9
CCOc1ccc2nc(SCC3CC3(Cl)Cl)[nH]c2c1 (centres undefined)	·	-5.8%	-2.1	3.8	·
COc1ccc(-c2noc(N3CCC(C(=O)Nc4ccccc4F)CC3)n2)cc1	·	·	-1.2	-2.8	·
CC1Cc2ccccc2N1C(=O)CN1C(=O)NC(C)(c2ccc3c(c2)OCCO3)C1=O (centres undefined)	-26.0	-4.4%	-12.1	-3.5	0.0
O=C(Nc1ccccc1F)c1ccc(Cn2cc(Cl)cn2)cc1	·	8.0%	-2.8	·	-25.9
Cc1cc(-c2nnc(SCC(=O)Nc3ccc(Br)cc3F)n2N)n[nH]1	·	·	3.3	-1.0	·
CCOC(=O)c1cc2sccc2n1CC(=O)C(C)(C)C	·	0.8%	5.2	-0.1	6.7
COc1cccc(C(=O)Oc2ccc(N3C(=O)CCC3=O)c(C)c2)c1	·	-2.4%	3.0	-1.9	6.5
COc1cc2c(cc1NC(=O)CN1C(=O)NC3(CCc4ccccc43)C1=O)oc1ccccc12 (centres undefined)	-14.0	63.8%	80.1	1.5	-6.8
CCn1cc(/C=N/NC(=O)c2ccc(C#N)cc2F)c2ccccc21	-27.1	3.7%	-1.1	-1.2	-12.0
Cc1nc2cc(NC(=O)c3ccc(Cl)cc3)ccc2n1C	·	·	-3.9	1.6	·
Cc1ccc(C2(C(F)(F)F)N=C3Sc4cc(C)ccc4N3C(=O)N2)cc1 (centres undefined)	-16.4	·	-2.7	·	-10.6
CC(=O)c1c(C)[nH]c(C(=O)COC(=O)CCSc2ccccc2)c1C	-16.7	1.6%	-0.4	·	-10.9
Cc1cccc(NC(=O)C2CCN(C(=O)c3ccc(Cl)cc3)CC2)n1	·	·	3.7	-1.4	·
CC1(C)CC2CC(C)(CN2C(=O)COC(=O)CNC(=O)c2ccc(Cl)c(Cl)c2)C1 (centres undefined)	-27.1	-2.8%	-6.8	-1.9	6.6
Cc1ccc(NC(=S)N(CCN(C)C)C(C)c2ccco2)cc1C (centres undefined)	-31.0	4.2%	2.2	0.6	16.5
COc1cccc(CN2CC(C(=O)N3CCCC3)CCC2=O)c1 (centres undefined)	·	·	0.9	-2.1	·
COc1cccc(N2CCN(Cc3nc(N)nc(Nc4ccccc4OC)n3)CC2)c1	3.4	7.8%	83.1	4.0	10.9
Cc1cc(/C=C2/SC(=O)N(CC(=O)N3CCOCC3)C2=O)c(C)n1-c1ccccc1F	-25.2	-5.8%	1.1	-1.5	4.9
COc1ccc(-c2nc3ncnn3cc2C)cc1F	·	-3.0%	-7.3	8.4	1.1
CCc1ccc(OCC2c3cc(OC)c(OC)cc3CCN2C(=S)NC)cc1 (centres undefined)	·	17.3%	9.2	8.5	-25.0

Other results follow:
SMILES	YopH inh	Mtb growth	Mtb betalactam	RecA splice inh	Arbovirus anti	others
COc1ccc(-c2nc3ccc(C(=O)NCC(OC)OC)cc3nc2-c2ccc(OC)c(OC)c2)cc1OC	·	·	6.2	7.7	·
C/C=C/C(=O)OCC(=O)Nc1cccc(Br)c1	·	-3.9%	2.8	-1.4	-6.6
O=c1cnnc(N/N=C/c2ccc3c(c2)OCO3)[nH]1	·	-7.7%	0.5	-3.8	·
COc1ccc(NC(=O)COc2ccc(/C=N/n3c(C)nnc3C)cc2OC)cc1	-20.0	-8.7%	-1.4	-4.8	2.7
COc1ccc(CCNC(=O)CCOc2cc(C)ccc2C)cc1OC	·	·	0.8	0.5	·
C=CCn1c(O)c(C(C)=Nc2ccc(NC(C)=O)cc2)c(=O)[nH]c1=O	-6.5	-0.2%	3.0	1.4	-0.9
CCN(CC)C(=O)C(Sc1nnnn1-c1ccc(O)cc1)c1ccccc1 (centres undefined)	·	·	-3.1	1.3	·
CCCOc1ccc(C2NC(=O)NC2=O)cc1 (centres undefined)	-30.6	-0.6%	-0.2	2.1	-3.2
CCn1c(SCC(=O)Nc2ccc(NC(=O)c3cccs3)cc2)nnc1-c1cccnc1	-47.0	-12.1%	2.2	5.8	-2.4
Cc1cccc2cc(CN(Cc3cccnc3)C(=O)c3ccccc3F)c(Cl)nc12	-28.5	-1.8%	7.2	6.5	8.4
Cc1cccc(NC(=O)CO/N=C/c2ccc3c(c2)OCO3)c1	-28.8	75.4%	1.5	-1.8	-5.1
Cc1ccc(O)c(/C=N/NC(=O)COc2ccc3c(C)cc(=O)oc3c2)c1	·	·	2.6	-2.2	·
